Screening data deposited in PubChem by several laboratories.
ugtP null kill = compounds lethal to S. aureus RN4220 ugtP deletion mutant; OD600 growth, 16 h; some inactives read as strong as hits; growth inhibition, % (concentration not given with the values); 330,000 tested, 0.54% active; AID 1259309;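 active means z-score under -3 and OD600 up to 0.15 on both plates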;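 further: plate controls were untreated wells for no effect and antibiotic for full effect; wells of about 80 µL received 100 nL stock; the first replicate is given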
RN4220 kill = S. aureus RN4220 growth inhibition; OD600, 16 h; inhibition, % (test concentration not listed); 330,000 tested, 0.33% active; AID 1259311;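 active means z-score of -3 or lower and OD600 up to 0.18 on both plates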;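 further: plate controls were untreated cells for no effect and reference antibiotic for full effect; stock transfer was 100 nL into about 80 µL; one replicate is shown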
Autofluor counter = counter-screen for toxin protease inhibitors: compound fluorescence | compound autofluorescence counterscreen, microsphere flow cytometry; hits give high values | fluorescence intensity (concentration not given with the values) | 360,000 tested, 3.1% active | AID 624483;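 active means at least 3 SD above the mean of all compounds, about 16000 in these data; inconclusive means too few beads counted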;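 further: 100 nL of 1 mM stock went into each well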
Mtb hypoxia rep = reduces hypoxia-regulated biosensor signal in M. tuberculosis; M. tuberculosis hypoxia-regulated fluorescent reporter, fluorescence; 300,000 tested, 0.1% active; fluorescence inhibition, % (concentration not given with the values);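 active means 35 to 45% if threefold the growth effect, above 45% if 1.5-fold the growth effect; inactive means the rest, general growth blockers included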;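 further: wells of about 50 µL received 100 nL stock; 0% = vehicle wells and 100% = reference inhibitor wells; whole bacteria with a GFP reporter of the hypoxia response; strong numbers were not always called active; many hits fall short of the cut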
BJeLR lethal = kills HRASV12-expressing BJeLR cells; BJeLR (HRASV12) viability, CellTiter-Glo ATP luminescence, 48 h; reference of the scale not given here; inhibition, % (no concentration beside the values); 300,000 tested, 0.17% active; AID 1554;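 active means replicate mean above 50%; inconclusive means above 50% but judged a plate artefact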;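 further: 50 nL library stock added to about 25 µL; numbers are from one replicate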
PrP 5UTR inh = inhibition of PrP 5' UTR reporter expression | cell-based PrP 5' UTR mRNA reporter, plate reader | inhibition, % (test concentration not listed) | 340,000 tested, 0.35% active | AID 488862;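 active means every replicate at 50% or more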;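 further: 0 = median of the neutral control wells; tested in H4 reporter cells; numbers are from one replicate; inactives centre near -14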
Mtb hypoxia rep growth = also measured in Mtb hypoxia rep; calls as there; growth inhibition, %; measured here: M. tuberculosis growth (absorbance);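 0% = vehicle and 100% = reference antibiotic; read after six days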
* = called active by the depositor; ? = inconclusive; nt = no result given.

Below each SMILES: RN4220 kill, Mtb hypoxia rep, Mtb hypoxia rep growth, PrP 5UTR inh, BJeLR lethal, ugtP null kill, Autofluor counter
1: Cc1ccccc1C(=O)N1CCC(C(=O)Nc2ccc(S(=O)(=O)N3CCOCC3)cc2)CC1
    0.1, 6, 6, -14, nt, 1, 3834
2: CN1c2ccccc2-c2nc3ccccc3n2C1c1ccncc1 (stereo not given)
    nt, nt, nt, -8, -4, nt, 4643
3: S=c1[nH]c2ccccc2[nH]1
    6.8, 10, 2, -34, 7, 3, 4472
4: CN(Cc1ccccc1)S(=O)(=O)c1cccs1
    6.6, 9, 7, -5, 1, 11, 7456
5: COc1cc(C)nc(NS(=O)(=O)c2ccc(C)cc2)n1
    3.4, nt, nt, -26, -9, -2, 4591
6: Cc1ccc(S(=O)(=O)N(C)c2ccccc2C(=O)NC2CCCC2)cc1
    nt, nt, nt, -26, 0, nt, 2205
7: COc1ccccc1N(CC(=O)NCCSCc1ccccc1)S(=O)(=O)c1ccc(C)cc1
    -0.9, 2, -7, -36, 4, -4, 4130
8: CN(Cc1ccc(OC(F)F)cc1)C(=O)c1ccc2nccnc2c1
    4.2, 3, 2, -12, -2, 12, ?
9: CCOc1ccc(NC(=O)c2ccc(OCC3CCCO3)cc2)cc1S(=O)(=O)N(CC)CC (stereo not given)
    3.0, 3, -2, -27, nt, 9, nt
10: CC1CCN(C(=O)CSc2nnc(-c3cccs3)o2)CC1
    -1.6, 21, 10, -20, -2, 11, 3859
11: Cc1cccc(NC(=O)CCc2ccc(S(=O)(=O)NC3CCCCC3)cc2)c1
    -2.8, nt, nt, 1, 0, 4, 4079
12: COc1cc2c3c(c1OC)C1(C=CC(=O)C=C1)CC3N(C(=O)c1ccccc1)CC2 (stereo not given)
    1.6, 3, 6, -22, 5, 0, 9697
13: Cc1ccc(S(=O)(=O)N2CCC(C)CC2)cc1C(=O)NCCN1CCOCC1
    -5.2, -1, -7, -19, -9, -5, 5125
14: Cc1cc(Cl)cc(Br)c1OCCNCC(C)O (stereo not given)
    -13, 10, 11, 2, -2, -6, 2959
15: CCN1CCN(c2nc(Nc3ccccc3F)nc(N)c2[N+](=O)[O-])CC1
    1.5, -6, 0, -12, 0, 4, nt
16: COc1ccc(NS(=O)(=O)c2cccc(C(=O)OCC(=O)c3c(N)n(C)c(=O)n(C)c3=O)c2)cc1
    -2.0, 1, 10, -10, nt, -3, 8239
17: COc1ccc(C(=O)NC2CCCc3c2cnn3-c2cccc(C)c2C)o1 (stereo not given)
    4.6, 0, -2, 3, 27, -2, 4515
18: CC(=O)NC(Cc1cccc(C)c1)C(=O)NC1CCN(C(=O)c2ccc([N+](=O)[O-])cc2)CC1 (stereo not given)
    3.6, 13, 4, -18, 4, 6, 2446
19: O=C(NCc1ccccc1C(F)(F)F)C1CCC(=O)N(CCCc2ccccc2)C1 (stereo not given)
    nt, nt, nt, -4, 1, nt, ?
20: Cc1ccc(C(=O)OC(C)C(=O)Nc2ccc3c(c2)OCO3)c(O)c1 (stereo not given)
    -3.1, -6, -2, -26, nt, -3, 3341

Below each SMILES: RN4220 kill, Mtb hypoxia rep, Mtb hypoxia rep growth, PrP 5UTR inh, BJeLR lethal, ugtP null kill, Autofluor counter
21: O=C(CCS(=O)(=O)c1ccc(Cl)cc1)Nc1cccc(S(=O)(=O)N2CCCCCC2)c1
    6.6, 14, 8, -14, nt, -3, 4190
22: COC(=O)c1ccc(OC(=O)c2cccs2)cc1
    nt, nt, nt, 15, -8, nt, 2702
23: CCN(CC)c1ccc(C=NNC(=O)CN2CCCc3ccccc32)cc1
    2.1, 3, -2, nt, nt, 4, nt
24: COc1nc(OC/C(N)=N/O)nc(N2CCOCC2)n1
    -0.4, nt, nt, -17, -1, 15, 3260
25: COc1cc(/C=C/C(=O)O)ccc1OS(=O)(=O)c1ccc(C)cc1
    12, -2, -2, -15, -5, -7, 3771
26: COc1ccc(OC)c(N=C2C(=O)Nc3ccccc32)c1
    6.5, 2, 6, -10, nt, 3, 21377*
27: O=C(c1cccc(F)c1)N1CCCN(C(=O)c2cccc(F)c2)CC1
    3.7, 8, 2, -26, -1, 0, 2149
28: Cn1cccc1C(=O)NCCc1ccccc1
    -4.2, -2, -7, -50, 2, 6, 4406
29: COc1ccc2[nH]cc(CCNC(=O)COc3ccc4ccc(=O)oc4c3)c2c1
    2.4, nt, nt, -16, -7, 8, 5250
30: CC(Sc1nnc(-c2ccccc2F)n1C1CC1)C(=O)NCc1ccco1 (stereo not given)
    4.3, nt, nt, -17, nt, 13, 2849
31: CCCn1c(SCC(=O)c2ccc(CC)cc2)n[nH]c1=O
    9.5, 13, 7, -2, -7, -3, 2844
32: CCCNC(=S)Nc1ccc(F)cc1F
    2.3, 17, 2, -22, -11, 2, 6130
33: CC(NC(=O)CN1CCN(c2ncccn2)CC1)c1ccc(F)cc1 (stereo not given)
    3.5, 10, 5, -10, 0, 6, 3424
34: O=C(NS(=O)(=O)Nc1ccc(Br)cn1)c1c[nH]c2ccccc12
    5.2, 8, -1, -5, 1, -4, nt
35: CC(C)[C@H](NC(=O)c1ccccc1)C(=O)OCC(=O)c1ccc(S(=O)(=O)N2CCCCC2)cc1
    nt, nt, nt, -10, 1, nt, 6493
36: Cc1cc2c(o1)CC(C)(C)CC2=O
    3.0, -3, 9, -33, 6, 3, 4155
37: COc1cc(C=NNC(=O)c2nc(C)cc(C)n2)ccc1O
    4.3, -6, -1, nt, nt, 3, nt
38: COc1ccc(Cl)cc1NC(=O)Nc1cc(C)on1
    29, -11, 9, -27, 5, -6, 5984
39: CCOC(=O)c1c(C)[nH]c(C(=O)OCC(=O)c2ccc(OC)cc2OC)c1C
    1.9, -3, 11, -9, -2, 4, 5901
40: Cc1cc(-c2cc(C(=O)NCc3ccccc3)on2)nc(S(C)(=O)=O)n1
    2.9, 15, 12, -7, 3, 1, 3415

Below each SMILES: RN4220 kill, Mtb hypoxia rep, Mtb hypoxia rep growth, PrP 5UTR inh, BJeLR lethal, ugtP null kill, Autofluor counter
41: Oc1cc(Cc2ccccc2)cnc1CN1CCOCC1
    5.3, nt, nt, -7, 0, 2, 2161
42: NC(CSc1ncccc1C(F)(F)F)=NO
    -0.6, -11, -5, nt, nt, -4, nt
43: Cc1ccc(-n2c(C)n[nH]c2=S)cc1C
    1.2, nt, nt, -24, 4, 0, 2545
44: O=C(Nc1ccc(OC(F)(F)F)cc1)C1CCCN(S(=O)(=O)c2cccnc2)C1 (stereo not given)
    -1.3, nt, nt, -11, 0, 10, 4186
45: O=C(c1cnc2n(c1=O)CCS2)N1CCc2ccccc21
    4.7, 1, 1, -3, -5, 0, 4582
46: CCOc1ccc(NC(=O)CN(C)C(=O)C2CCN(c3ncnc4sc(C)c(C)c34)CC2)cc1OCC
    -3.3, -2, 5, 7, -2, -4, 5173
47: CC(OC(=O)c1cc2sccc2n1C)C(=O)NC(C)(C)C (stereo not given)
    5.4, 11, 0, -46, 1, 14, 3824
48: O=C(CCN1C(=O)S/C(=C/c2ccc(Cl)cc2)C1=O)N1CCOCC1
    3.3, 0, 1, -24, 5, 1, 2133
49: O=C(Nc1ccccc1)OCCOc1ccc(Cl)cc1Cl
    -1.5, -11, 7, -1, nt, -39, 3873
50: O=S(=O)(Nc1ccccc1N1CCOCC1)c1ccc(Cl)cc1
    2.8, 0, 10, -9, nt, -8, 3640
51: CCc1cc[n+](-c2nc3ccccc3nc2[N-]S(=O)(=O)c2ccc(Br)s2)cc1
    6.7, 13, -2, -5, -4, -3, 2692
52: COc1ccc(C2C3C(C)=NN=C3CC(C)(O)C2C(C)=O)cc1 (stereo not given)
    nt, nt, nt, -22, 0, nt, 9079
53: O=C(Nc1ccc(Cl)cc1C(=O)N1CCCC1)c1cccc([N+](=O)[O-])c1
    2.2, 14, 6, -21, -3, 5, 2452
54: COc1ccc(C2C(C#N)=C(N)OC3=C2C(=O)CCC3)cc1Cn1cc([N+](=O)[O-])cn1 (stereo not given)
    5.2, 1, 8, -13, -8, -1, 2151
55: CC1CN(c2ccc(C(F)(F)F)cc2[N+](=O)[O-])CCN1S(C)(=O)=O (stereo not given)
    4.6, 7, 2, -13, -8, -2, 10295
56: COc1ccc(NC(=O)Cc2nnc(SCC(=O)Nc3ccc(F)cc3)n2C)cc1
    -2.6, -4, 10, 1, 1, -3, 3686
57: Cc1cc(C)n2nc(SCC(=O)N(Cc3ccccc3)C3CCS(=O)(=O)C3)nc2n1 (stereo not given)
    -6.7, -2, 1, -11, 6, -3, 3952
58: Nc1ccccc1Nc1cccc(C(F)(F)F)c1
    4.6, 1, -13, -25, 6, -9, 2513
59: CN(CCC(=O)Nc1cc(S(=O)(=O)N(C)C)ccc1Cl)CC(=O)Nc1ccc(F)cc1
    2.3, -4, 2, 18, -4, 0, 3886
60: O=C(NCC1COCCO1)C1CCN(S(=O)(=O)c2ccccc2)CC1 (stereo not given)
    3.7, 4, 5, -6, 3, 8, 7423

From compound 42 to 43, as listed above:
Below each SMILES: RN4220 kill, Mtb hypoxia rep, Mtb hypoxia rep growth, PrP 5UTR inh, BJeLR lethal, ugtP null kill, Autofluor counter
42: NC(CSc1ncccc1C(F)(F)F)=NO
    -0.6, -11, -5, nt, nt, -4, nt
43: Cc1ccc(-n2c(C)n[nH]c2=S)cc1C
    1.2, nt, nt, -24, 4, 0, 2545

Other entries.
Below each SMILES: RN4220 kill, Mtb hypoxia rep, Mtb hypoxia rep growth, PrP 5UTR inh, BJeLR lethal, ugtP null kill, Autofluor counter
61: O=C(COC(=O)c1ccc(Cl)c(S(=O)(=O)N2CCCCC2)c1)NCCc1ccccc1
    6.3, 12, 0, -21, nt, 13, ?
62: S=C(NCCCN1CCOCC1)N1CCN(c2cccc(Cl)c2)CC1
    2.6, 6, -3, -12, 4, 2, 3363
63: Cc1nc2cc(NC(=O)NCc3ccc4c(c3)OCO4)ccc2o1
    3.9, 6, 12, -15, -8, 1, 11126
64: CCC1Oc2ccccc2N(CC(=O)NCCCN2CCN(c3ccc(OC)cc3)CC2)C1=O (stereo not given)
    1.3, 4, -2, -16, -4, 3, 6209
65: COC(=O)c1ccc(CSc2nc3ccccc3c(=O)n2C)o1
    0.0, -12, -7, -24, 0, 6, 3776
66: CCOC(=O)c1ccc(NC(=O)NS(=O)(=O)c2ccc(C)cc2)cc1
    -0.4, nt, nt, -20, 7, 4, 5758
67: Cc1cc2c(cc(C(=O)NCc3cccnc3)n2Cc2ccc(Cl)cc2)o1
    0.3, 4, 7, -42, -6, 0, 11097
68: CCOCCCNC(=O)CN(Cc1ccc(Cl)cc1)S(C)(=O)=O
    3.3, nt, nt, -11, -2, 1, 2652
69: Cc1ccc(C)c(N=Cc2cc3c(cc2[N+](=O)[O-])OCO3)c1
    4.9, 14, 3, -5, -2, 9, 4172

Another view of some results above:
entry	SMILES	RN4220 kill	Mtb hypoxia rep	Mtb hypoxia rep growth	PrP 5UTR inh	BJeLR lethal	ugtP null kill	Autofluor counter
25	COc1cc(/C=C/C(=O)O)ccc1OS(=O)(=O)c1ccc(C)cc1	12	-2	-2	-15	-5	-7	3771
26	COc1ccc(OC)c(N=C2C(=O)Nc3ccccc32)c1	6.5	2	6	-10	nt	3	21377*
27	O=C(c1cccc(F)c1)N1CCCN(C(=O)c2cccc(F)c2)CC1	3.7	8	2	-26	-1	0	2149
28	Cn1cccc1C(=O)NCCc1ccccc1	-4.2	-2	-7	-50	2	6	4406
29	COc1ccc2[nH]cc(CCNC(=O)COc3ccc4ccc(=O)oc4c3)c2c1	2.4	nt	nt	-16	-7	8	5250
30	CC(Sc1nnc(-c2ccccc2F)n1C1CC1)C(=O)NCc1ccco1 (stereo not given)	4.3	nt	nt	-17	nt	13	2849
31	CCCn1c(SCC(=O)c2ccc(CC)cc2)n[nH]c1=O	9.5	13	7	-2	-7	-3	2844
